# BJeLR viability: BJeLR cell viability loss | BJeLR (HRASV12) viability, CellTiter-Glo ATP luminescence, 48 h; reference of the scale not given here | inhibition, % (test concentration not listed) | 300,000 compounds, 0.17% hits;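 active = replicate mean above 50%; inconclusive = above 50% but judged a plate artefact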;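 also: 50 nL library stock added to about 25 µL; numbers are from one replicate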
# RN4220 kill: S. aureus RN4220 growth inhibition. 330,000 compounds, 0.33% hits. inhibition, % (test concentration not listed). OD600, 16 h;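 active = z-score of -3 or lower and OD600 up to 0.18 on both plates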;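 also: plate controls were untreated cells for no effect and reference antibiotic for full effect; stock transfer was 100 nL into about 80 µL; one replicate is shown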
# Mtb hypoxia inh: reduces hypoxia-regulated biosensor signal in M. tuberculosis; M. tuberculosis hypoxia-regulated fluorescent reporter, fluorescence; fluorescence inhibition, % (no concentration beside the values); 300,000 compounds, 0.1% hits;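 active = 35 to 45% if threefold the growth effect, above 45% if 1.5-fold the growth effect; inactive = the rest, general growth blockers included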;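 also: wells of about 50 µL received 100 nL stock; 0% = vehicle wells and 100% = reference inhibitor wells; whole bacteria with a GFP reporter of the hypoxia response; strong numbers were not always called active; many hits fall short of the cut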
# ugtP null kill: kills S. aureus RN4220 lacking UgtP | S. aureus RN4220 ugtP deletion, OD600 growth, 16 h; some inactives read as strong as hits | growth inhibition, % (concentration not given with the values) | 330,000 compounds, 0.54% hits | AID 1259309;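 active = z-score under -3 and OD600 up to 0.15 on both plates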;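 also: plate controls were untreated wells for no effect and antibiotic for full effect; wells of about 80 µL received 100 nL stock; the first replicate is given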
# Autofluor counter: counter-screen for toxin protease inhibitors: compound fluorescence; fluorescence intensity (test concentration not listed); compound autofluorescence counterscreen, microsphere flow cytometry; hits give high values; 360,000 compounds, 3.1% hits;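 active = at least 3 SD above the mean of all compounds, about 16000 in these data; inconclusive = too few beads counted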;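 also: 100 nL of 1 mM stock went into each well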
# PrP 5UTR inh: suppresses PrP 5' UTR mRNA reporter expression. 340,000 compounds, 0.35% hits. inhibition, % (concentration not given with the values). cell-based PrP 5' UTR mRNA reporter, plate reader;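 active = every replicate at 50% or more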;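 also: 0 = median of the neutral control wells; tested in H4 reporter cells; numbers are from one replicate; inactives centre near -14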
# Mtb hypoxia inh growth: second read-out of Mtb hypoxia inh, no call of its own (marks repeat the call); growth inhibition, %; measured here: M. tuberculosis growth (absorbance);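 0% = vehicle and 100% = reference antibiotic; read after six days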
# An asterisk follows results filed as active; ? = inconclusive; · = not tested or not shown.
SMILES,BJeLR viability,RN4220 kill,Mtb hypoxia inh,Mtb hypoxia inh growth,ugtP null kill,Autofluor counter,PrP 5UTR inh
Cc1noc(C)c1C1(O)CCCCCCCCCCC1,-2,11,7,0,-16,2008,-14
O=C(NCCN1CCOCC1)NC1(C(F)(F)F)Oc2ccc(Cl)cc2O1 (stereo not given),-2,5.1,8,1,7,1998,-18
CCN(C(=O)c1c(N)cnn1C)c1ccccc1,2,1.1,4,3,2,4306,-10
O=C(Nc1ccc(-c2noc(CCc3ccccc3)n2)cc1)c1cccnc1,13,-0.4,·,·,-14,2282,-14
O=C(CCCCn1c(=O)c2ccccc2n(Cc2ccc(F)cc2)c1=O)NCc1ccco1,·,-0.5,·,·,-4,2278,-6
COc1ccc(N2CCC(N3CCN(C)C(CCO)C3)CC2)cc1 (stereo not given),-1,1.6,8,8,10,4051,-7
CCOC(=O)N1CCN(C(=O)COC(=O)c2cccc(S(C)(=O)=O)c2)CC1,·,2.3,6,16,4,·,-7
COc1cc(OC)cc(C(=O)N[C@H](C(=O)OCC(=O)NC(=O)c2cccn2C)C(C)C)c1,0,6.7,14,-3,-2,4481,-10
O=C(CCc1nnc2ccc(NCc3ccc(F)cc3)nn12)N1CCC2(CC1)OCCO2,5,1.2,1,3,5,5305,-16
CCN(CC)S(=O)(=O)c1cccc(C(=O)OC2CC(C)OC2=O)c1 (stereo not given),-9,-2.4,-1,1,5,3787,-18
Cc1c(Cc2ccc3c(c2)OCO3)sc(NC(=O)C2CC2)c1C(N)=O,13,4.9,1,4,13,4885,-13
Cc1ccc(/C=C/C(=O)O)cc1S(=O)(=O)NCCO,-3,-2.9,·,·,10,1991,4
CCOC(=O)c1c(NC(=O)CSc2ncn[nH]2)sc(C(=O)NC)c1C,3,3.8,6,1,4,?,-5
CCOc1ccccc1N1C(=O)CC(Nc2ccc(N3CCOCC3)cc2)C1=O (stereo not given),1,3.4,-2,4,-5,8446,-57
CN(C)C(CNC(=O)c1ccc(S(=O)(=O)N(C)C)cc1)Cc1ccccc1 (stereo not given),0,9.3,-5,0,7,4095,-4
COc1cc([N+](=O)[O-])ccc1NC(=O)CN1C(=O)NC2(CCCCC2C)C1=O (stereo not given),·,1.2,-4,-1,-6,5995,-13
CCCCCn1c(=O)c(C(=O)Nc2ccccc2S(N)(=O)=O)c(O)c2ccccc21,3,100*,0,9,100*,3476,-10
CCN(C(=O)COC(=O)c1n[nH]c2ccccc12)C1CCS(=O)(=O)C1 (stereo not given),-18,-0.9,-8,7,0,2532,-8
Cc1cccc(-n2c(SCC(N)=O)nnc2-c2ccco2)c1,3,2.1,4,0,14,2777,-15
CC(C)N1CCN(Cc2cccc(-c3ccco3)c2)CC1CCO (stereo not given),10,-0.4,-2,-5,5,2766,-36
CCC(=O)N(Cc1ccco1)c1nc(C(=O)Nc2ccc(Cl)cc2)c(C)s1,2,-15,0,2,-11,2147,-27
O=C(Nc1ccc(N=Nc2ccccc2)cc1)c1ccc(Cl)cc1Cl,10,6.4,3,0,8,13099,-33
C=CCN1C(=O)C(Cc2ccc(OCC)cc2)SC1=Nc1ccc(C(=O)O)cc1 (stereo not given),-4,8.1,15,7,10,2128,-15
Cn1nnnc1SCCNC(=O)C1CCC(=O)N(CCc2cccc(F)c2)C1 (stereo not given),3,0.0,1,0,4,5561,-8
Cc1ccc(NS(=O)(=O)c2ccc3c(c2)n(C)c(=O)n3C)cc1C,2,7.2,0,-2,8,4096,-18
Cc1ccc(S(=O)(=O)N2C(c3ccc4c(c3)OCO4)CC=C(C(=O)O)C2c2ccc(F)cc2)cc1 (stereo not given),·,22,13,1,26,·,·
COC(=O)COc1cccc(/C=N/NC(=O)CCSc2ccccc2)c1,3,·,·,·,·,2031,-10
COCCNC(=O)C(C#N)=Cc1ccc(-c2ccc(OC)cc2[N+](=O)[O-])o1,·,-2.2,-7,-1,-14,·,·
COC(=O)C1CCCCN1C(=O)c1ccc2oc(C(C)C)nc2c1 (stereo not given),10,4.3,-4,-9,8,4285,-7
O=C(O)CSc1nnc(-c2ccncc2)n1-c1ccc(Cl)cc1,2,2.6,5,0,10,4111,-15
O=C(CSc1nnc(Cn2c(=O)sc3ccccc32)n1-c1ccccc1)Nc1nccs1,-2,0.2,·,·,8,4415,-33
CC1CCN(c2nc(NCc3ccco3)nc(N)c2[N+](=O)[O-])CC1,-18,18,4,1,2,7210,-30
CC1=NCCN1CCNC(=O)Nc1cc(C)cc(C)c1,4,3.7,9,4,12,3867,-23
Cc1ccc(C)c(NC(=O)Cc2coc3cc4c(cc23)CCC4)c1,11,-0.6,-3,3,-4,7439,-16
CC(C)(C)c1ccc(C(=O)N2CCNCC2)cc1,4,2.0,4,-1,6,4461,-11
NC(=O)C1CCN(c2nc3c(S(=O)(=O)c4ccccc4)nnn3c3ccccc23)CC1,2,2.7,6,11,7,5268,3
O=C(COC(=O)c1ccccc1OCc1ccc(F)cc1)NCC1CCCO1 (stereo not given),·,3.6,9,-2,2,·,-15
CN1C(=O)C2C(C1=O)C(c1ccc(F)cc1)N1C(=O)c3ccccc3NC(=O)C21 (stereo not given),·,5.2,5,11,6,·,·
CC1(C(=O)NCc2ccc(Cl)c(Cl)c2)Oc2ccccc2NC1=O (stereo not given),-1,9.1,3,1,24,3083,-12
CCCCN1CCNCC1Cc1ccccc1 (stereo not given),·,3.6,3,1,-4,·,·
CCOc1ccc(N2CC(C(=O)Nc3nnc(Cc4ccc(OC)cc4)s3)CC2=O)cc1 (stereo not given),6,-1.3,8,-3,13,3095,-6
Clc1ccccc1CSc1cc2c(nn1)-c1ccccc1CC2,7,-2.2,·,·,9,2802,-85
CCOC(=O)c1nn(-c2ccc(F)cc2)c2c1CC/C2=C/c1ccccc1,-5,·,·,·,·,2815,-26
C=CCOc1c(OC)cc(C=NNc2cccc(C(=O)O)c2)c(Br)c1Br,·,-5.8,-9,0,0,·,·
CN(c1ccccc1)S(=O)(=O)c1cccc(NC(=O)COc2cccc([N+](=O)[O-])c2)c1,·,1.3,3,0,-4,5757,6
C=C1CCN([C@@H](CC(C)C)C(=O)NCc2ccccc2)S(=O)(=O)c2ccccc21,3,·,·,·,·,3119,-10
COc1cc(/C=C2/NC(=O)N(CC(=O)Nc3cccc(C)c3)C2=O)ccc1OCC(N)=O,1,4.0,6,2,0,3172,-7
COc1ccccc1C1CC(=O)Nc2c1c(=O)n(C)c(=O)n2C (stereo not given),-6,9.1,-2,-1,-4,5274,-26

# Ordered by length of the SMILES (descending): three of the compounds above.
SMILES,BJeLR viability,RN4220 kill,Mtb hypoxia inh,Mtb hypoxia inh growth,ugtP null kill,Autofluor counter,PrP 5UTR inh
CN(c1ccccc1)S(=O)(=O)c1cccc(NC(=O)COc2cccc([N+](=O)[O-])c2)c1,·,1.3,3,0,-4,5757,6
COc1cc(/C=C2/NC(=O)N(CC(=O)Nc3cccc(C)c3)C2=O)ccc1OCC(N)=O,1,4.0,6,2,0,3172,-7
COc1ccccc1C1CC(=O)Nc2c1c(=O)n(C)c(=O)n2C (stereo not given),-6,9.1,-2,-1,-4,5274,-26

# More results follow:
SMILES,BJeLR viability,RN4220 kill,Mtb hypoxia inh,Mtb hypoxia inh growth,ugtP null kill,Autofluor counter,PrP 5UTR inh
Cn1c(=O)c2nc(NCc3ccccc3)cnc2n(C)c1=O,-2,3.2,7,-4,4,12992,-21
O=[N+]([O-])c1ccc(O)c(/C=N/Nc2ccccc2Cl)c1,1,·,·,·,·,4205,-21
O=C(CNS(=O)(=O)c1ccc2c(c1)OCCCO2)N1CCN(Cc2ccccc2)CC1,·,8.7,2,7,6,4001,-20
COc1ccccc1N1C(=S)NC2CS(=O)(=O)CC21 (stereo not given),2,3.3,3,3,4,4875,36
Cc1ccc(S(=O)(=O)Nc2nnc(C3CCCCC3)s2)cc1,2,1.0,6,11,-14,5588,-22
FC(F)(F)c1ccc(CNCCc2ccc3c(c2)OCO3)cc1,5,3.9,-3,9,0,3048,-25
O=C(O)C1C2CCC(O2)C1C(=O)NCc1ccccc1Br (stereo not given),1,-1.8,-3,5,-5,4573,-3
CC1CCCC(N2CCN(C(=O)c3ccc(F)cc3)CC2)C1 (stereo not given),-6,3.2,·,·,6,5943,-17
CC(C)(C)C(=O)NC1(C(F)(F)F)NC(=O)N(CCc2ccccc2)C1=O (stereo not given),-10,1.3,-4,2,0,3996,6
COc1cccc(CN(C(=O)COc2ccc(C)cc2)C2CCS(=O)(=O)C2)c1 (stereo not given),-1,3.8,13,2,-1,5146,4
COc1ccc(OC)c(C2C(C(=O)c3ccc(C)o3)=C(O)C(=O)N2CCN2CCOCC2)c1 (stereo not given),12,1.1,0,0,2,5480,-9
Cc1ccc(C)c(S(=O)(=O)N2CCCOC2CNC(=O)C(=O)NCCN2CCOCC2)c1 (stereo not given),-11,4.3,7,2,5,6357,-1
CC(=O)Nc1nc(COc2ccc3ccccc3c2)cs1,2,-3.8,8,7,-21,23460*,-63
CCC(=O)N1CCc2cc(S(=O)(=O)CCC(=O)N3CCN(c4ccccc4F)CC3)ccc21,-8,-0.7,-2,-4,-1,5856,-14
O=C(Cc1nc2ccccc2[nH]1)c1ccc(Br)cc1,29,-4.5,2,6,14,5239,-63
Cc1cc(C)n(-c2ncc3c(n2)N(CCO)CCOC3=O)n1,-7,4.4,5,-1,13,3742,-18
CNC(=O)COC(=O)/C=C/c1cccc(F)c1,3,-1.9,2,4,4,4163,58*
Cc1ccc(-c2cc(C(F)F)n3ncc(C(=O)N4CCC5(CC4)OCCO5)c3n2)cc1,2,4.1,-4,1,-1,9405,·
COC(=O)CNc1nc(Cl)nc(Nc2ccc(Cl)cc2)n1,0,4.6,10,2,0,3314,-24
CC(C)c1nnc(NC(=O)CCC(=O)Nc2ccc3cn[nH]c3c2)s1,13,-0.6,4,2,6,3604,-32
Cc1cc(C(F)(F)F)nn1Cc1n[nH]c(=S)n1-c1cccc(Cl)c1,-10,1.8,0,0,-15,15165,-7
CCOC(=O)c1c(CSC(=N)N)n(-c2ccc(C)cc2)c2cc(Br)c(OC(C)=O)cc12,84*,0.3,·,·,-25,9813,-34
O=C(NCc1cccnc1)C(=O)Nc1cc2c3c(c1)CC(=O)N3CCC2,11,1.6,-7,1,2,4930,-5
CC(C)(CO)Nc1nc(N2CCCC2)nc(N2CCCC2)n1,4,-0.2,-2,2,-4,4197,-8

# Overlap with the part before: three entries; new compounds follow.
SMILES,BJeLR viability,RN4220 kill,Mtb hypoxia inh,Mtb hypoxia inh growth,ugtP null kill,Autofluor counter,PrP 5UTR inh
CCOC(=O)c1c(CSC(=N)N)n(-c2ccc(C)cc2)c2cc(Br)c(OC(C)=O)cc12,84*,0.3,·,·,-25,9813,-34
O=C(NCc1cccnc1)C(=O)Nc1cc2c3c(c1)CC(=O)N3CCC2,11,1.6,-7,1,2,4930,-5
CC(C)(CO)Nc1nc(N2CCCC2)nc(N2CCCC2)n1,4,-0.2,-2,2,-4,4197,-8
CCC1(CC)Cc2ccccc2C(C2=C(O)CC(C)(C)CC2=O)=N1,3,1.3,16,7,7,2484,-17
CCOC(=O)CC(=O)c1cc(OC)c(OC)c(OC)c1,-1,7.5,1,11,4,5781,-26
Cc1cc(NC(=O)C(C)SCC(=O)Nc2ccccc2C(C)(C)C)no1 (stereo not given),7,1.0,-5,-8,0,6243,-11
CCc1ccc(-c2cc(C)no2)cc1S(=O)(=O)Nc1cc(C)ccn1,9,1.7,10,-1,5,5489,1
CC(C)CCN(C(=S)Nc1cccc(F)c1)C1CCN(C(C)C)CC1,16,1.4,13,3,5,4503,79*
O=C(OCC(=O)N1CCOCC1)c1ccc2c(c1)OCCO2,8,4.3,·,·,4,3597,-53
C=CC[C@@H](CC/C=C/C=C/CC/C=C\[C@@H]1CSC([C@@H]2C[C@@H]2C)=N1)OC,·,6.7,-1,8,5,2969,56*
Cn1c(SCC(=O)NNC(=O)c2ccccc2Br)nnc1C(F)(F)F,·,7.3,8,-1,14,2921,-2
CCOc1ccc(-n2c(SCC(=O)Nc3ccc(OC)cc3)nc3c(c2=O)SCC3)cc1,-4,-0.2,·,·,0,2455,19
COC(=O)c1cccc(C23CC4(C2)[C@H](CN(Cc2cccnc2)[C@@H]4c2ccccc2)C3c2ccccc2)c1 (stereo not given in full),-15,·,·,·,·,4009,-9
CN(Cc1ccccc1)S(=O)(=O)c1nnc(NC(=O)c2ccc(F)cc2)s1,8,11,10,6,15,4778,-12
O=C(Cn1ncc2c(=O)oc3ccccc3c21)NCCN1CCN(c2ccccc2F)CC1,1,-13,11,8,-3,5138,-24

# Bioassay records deposited in PubChem BioAssay by several laboratories.

# Not a hit list (roughly 3.9% active in at least one column).
